Screening results: PubChem BioAssay, several laboratories
PKD1 inh – inhibitors of human PKD1 kinase; Q15139; PKD1 kinase fluorescence polarization assay; inhibition, %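 (about 10 µM by stock and volumes)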; 0.056% of 200,000 active; AID 797;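 active = inhibition of 50% or more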;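 note: controls were vehicle for no effect and a reference inhibitor for full effect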
Target sequence (Q15139 whole entry, looked up): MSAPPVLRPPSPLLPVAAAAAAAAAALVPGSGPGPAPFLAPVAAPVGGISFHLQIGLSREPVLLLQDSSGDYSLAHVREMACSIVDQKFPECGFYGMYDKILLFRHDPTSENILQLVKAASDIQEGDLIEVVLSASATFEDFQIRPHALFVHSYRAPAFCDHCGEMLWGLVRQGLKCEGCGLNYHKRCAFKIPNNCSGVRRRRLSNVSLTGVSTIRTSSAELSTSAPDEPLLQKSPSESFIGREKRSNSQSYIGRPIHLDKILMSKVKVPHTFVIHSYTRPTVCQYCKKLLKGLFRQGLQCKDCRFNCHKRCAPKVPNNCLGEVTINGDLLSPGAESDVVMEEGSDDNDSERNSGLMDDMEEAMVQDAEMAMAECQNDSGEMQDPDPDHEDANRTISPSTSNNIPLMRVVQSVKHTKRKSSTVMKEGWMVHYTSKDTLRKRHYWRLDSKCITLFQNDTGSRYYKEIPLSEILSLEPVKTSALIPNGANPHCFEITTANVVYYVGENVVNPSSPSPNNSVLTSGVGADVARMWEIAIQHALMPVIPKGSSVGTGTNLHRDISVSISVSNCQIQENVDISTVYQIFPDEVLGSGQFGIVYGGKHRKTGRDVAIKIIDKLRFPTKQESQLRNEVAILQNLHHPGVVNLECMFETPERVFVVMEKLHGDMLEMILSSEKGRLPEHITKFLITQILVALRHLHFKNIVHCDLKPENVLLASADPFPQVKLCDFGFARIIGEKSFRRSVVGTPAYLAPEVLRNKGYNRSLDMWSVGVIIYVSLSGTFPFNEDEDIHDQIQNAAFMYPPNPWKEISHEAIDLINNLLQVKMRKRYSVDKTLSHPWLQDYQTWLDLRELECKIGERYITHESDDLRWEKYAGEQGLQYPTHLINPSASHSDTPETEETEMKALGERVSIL
HSV augment – HSV replication enhancement; AID 1956; 0.005% of 220,000 active; HSV replication augmentation in cells, fold increase; maximum fold increase;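 active = peak rise of 1.5-fold or more in the series; tested in PC3 cells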;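 note: first round at 10 µM; read as green reporter fluorescence; hits show the peak of a series up to 25 µM; 1 = signal of infected wells without compound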
RGS16-Gao – RGS16-Galphao interaction regulator (human) | bead-based flow cytometry RGS16-Galphao binding, fluorescence; actives lie on both sides | O15492+P09471 | 0.38% of 220,000 active | binding response (% of control), % at 10 µM;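 active = below 25% or above 175%, edge rows of some plates excepted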;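 note: Galphao activated by GDP with aluminum fluoride before binding; 100% = wells without compound and 0% = beads without RGS; some results beyond the cut were filed as inactive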
Insulin prom inh – TRM-6 insulin promoter activity inhibition. inhibition, % at 2 µM. 0.9% of 130,000 active. TRM-6 cells (human fetal islet line), insulin promoter-eGFP reporter, imaging; reporter expression induced with tamoxifen. AID 1273;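 active = inhibition above the mean plus 3 SD, with well images judged a real hit on visual review, cut at about 60% in these data, passing the limit was not always enough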
GALR2 agonist – GALR2 (human) receptor agonism. activation, %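 (tested at 5 µM)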. O43603. AID 803. GALR2-expressing cells, agonist activation read-out. 0.48% of 140,000 active;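 active = above mean plus 3 SD of all compounds, about 5% in these data, not always enough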;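 note: 0% = vehicle buffer wells and 100% = reference agonist at full effect; tested in CHO reporter cells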
Insulin prom inh cell count – recorded beside Insulin prom inh, whose call it bears; normalized cell count, %; measured here: cell count, toxicity; reference of the scale not given here;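 cells exposed to compound for 48 h; stained nuclei by imaging scaled within each plate; lower means fewer cells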
HSV augment primary fold – recorded beside HSV augment, whose call it bears; fold increase; compound at 10 µM; measured here: primary screen fold increase 10 uM; tested in PC3 cells;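 GFP signal in the first replicate; 1 = infected wells without compound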
Numbers without * were called inactive; i = inactive; x = not tested or not shown.

SMILES | PKD1 inh | HSV augment | HSV augment primary fold | RGS16-Gao | Insulin prom inh | Insulin prom inh cell count | GALR2 agonist
COc1ccccc1N1CCN(CC(=O)Nc2ccc(-n3cnnn3)cc2)CC1 | 1.8 | i | 0.92 | 99.9 | 0.0 | 69.3 | x
CCOc1ccc(S(=O)(=O)n2cc(F)c(=O)[nH]c2=O)cc1 | -6.2 | i | 1.16 | 94.1 | x | x | x
CCN1CCN(Cc2ccc(NC(=O)c3ccc(C)c(NC(=O)c4ccc5n[nH]nc5c4)c3)cc2C(F)(F)F)CC1 | x | i | 0.95 | 101.5 | x | x | x
CSc1nnc2c(n1)OC(c1ccccn1)N(C(C)=O)c1ccccc1-2 (configuration not stated) | -5.5 | i | 1.06 | 99.8 | 29.4 | 99.0 | x
Cc1n[nH]c(=S)c2nn(-c3ccccc3F)c(C)c12 | -0.9 | x | x | 105.4 | -1.4 | 80.5 | -1.6
O=C(NNC(=S)Nc1cccc(C(F)(F)F)c1)c1ccc(Cl)cc1Cl | 4.5 | i | 1.02 | 97.6 | -74.2 | 91.1 | 0.8
CCn1c(SCC(N)=O)nc2ccccc2c1=O | 9.8 | i | 0.86 | 99.3 | x | x | -0.7
Nc1nc(NCC2CCCO2)nc(Nc2cccc(Cl)c2)c1[N+](=O)[O-] (configuration not stated) | x | i | 0.82 | 100.1 | x | x | x
CCNS(=O)(=O)c1ccc(NC(=O)c2c(-c3ccccc3)noc2C)cc1 | 4.4 | i | 0.92 | 99.5 | x | x | x
COC(=O)c1sccc1NC(=O)c1ccc(OC)cc1 | -8.1 | i | 0.89 | 90.6 | 65.3 | 60.3 | 0.6
CCOc1c2ccc(C(=O)NC3CCCc4ccccc43)cc2nn1CC (configuration not stated) | -5.0 | i | 1.03 | 104.1 | 18.2 | 139.4 | -1.6
CCOc1cc(C(=O)NC(C)c2ccncc2)cc(OCC)c1OCC (configuration not stated) | -5.9 | i | 0.8 | 94.6 | 43.8 | 92.7 | -2.5
COc1cc(/C=N\NC(=O)c2ccccc2F)ccc1Oc1ccc([N+](=O)[O-])cn1 | x | i | 0.77 | 114.8 | x | x | x
CCOCCCNC(=O)Cn1cc2c(n1)CCCCC2 | -11.1 | i | 0.78 | 85.5 | x | x | -1.3
CCCCCOc1ccc(Br)cc1/C(C)=N/NC1=NCCN1 | 8.3 | x | x | 109.3 | i | 7.5 | -0.3
Cc1cc(C)c2c(-n3cccc3)nn(CC#N)c2n1 | -4.5 | i | 0.93 | 105.8 | 27.0 | 146.3 | -1.6
COc1ccc(COc2ccccc2C(N)=O)cc1F | -14.3 | i | 0.92 | 86.1 | -11.1 | 117.0 | -1.0
CC1(C)Cc2ccccc2C(N)=C1C#N | -10.3 | i | 0.66 | 104.4 | -50.0 | 134.6 | 0.4
Cc1ccc(SCC(=O)NCCSCc2ccccc2)cc1 | -1.6 | i | 0.97 | 100.2 | 40.0 | 102.9 | -0.7
O=C(c1ccc([N+](=O)[O-])cc1)N1CCN(C(=O)c2ccco2)CC1 | -4.8 | i | 0.96 | 102.0 | 11.8 | 124.4 | x
CCC(C)(C)C1CCc2[nH]nc(C(=O)NN)c2C1 (configuration not stated) | x | i | 1.17 | 104.9 | x | x | x
COc1ccc(OCCCN2CCCC(C)C2)cc1 (configuration not stated) | -6.7 | i | 0.89 | 99.5 | -1.4 | 96.6 | -3.6
COc1cc(CN2CCN(c3cccc(C)c3C)CC2)cc(OC)c1O | -4.2 | i | 0.89 | 96.2 | x | x | -1.5
COc1ccc(C2=CC3=C(Br)C(=O)C(C)(OC(=O)c4ccco4)C(=O)C3=CO2)cc1 (configuration not stated) | x | i | 1.12 | 86.4 | x | x | x
CCOc1cc(C2C(C(=O)N3CCCCC3)=C(C)NC3=C2C(=O)CC(C)(C)C3)ccc1O (configuration not stated) | -3.4 | i | 0.62 | 91.8 | x | x | -1.2
O=C(O)c1ccc(Br)c(S(=O)(=O)N2CCCC2)c1 | -6.9 | i | 0.99 | 112.8 | x | x | -1.6
COc1cccc(CN2CCN(C(=O)CC(C)C)CC2)c1 | -2.5 | i | 0.94 | 101.0 | x | x | -0.9
CCOC(=O)CN(C(=O)COc1nc(-c2ccccc2)cc(C)c1C#N)c1cccc(OC)c1 | x | i | 1 | 98.7 | x | x | x
COc1ccc2nc3oc(C(=O)NC4CCN(Cc5ccccc5)CC4)cc3cc2c1 | 5.7 | i | 0.92 | 133.3 | 54.5 | 135.6 | -1.7
CCCC(=O)c1ccc(N2CCN(S(=O)(=O)c3ccc(C)cc3)CC2)c(F)c1 | -6.2 | i | 0.88 | 112.9 | 0.0 | 61.7 | -0.7
Cc1ccccc1CN1C[C@@H]2C[C@@H](c3cnc(N4CCOCC4)s3)N3CCC[C@@]23C1=O | -4.8 | i | 0.97 | 116.5 | x | x | x
Cc1cc(/C=C(\C#N)C(=O)Nc2ccc(Cl)cc2)c(C)n1-c1ccc(N2CCOCC2)c([N+](=O)[O-])c1 | 14.6 | i | 0.93 | 109.2 | 50.0 | 91.4 | -1.3
CCOCCCNC(=O)CCS(=O)(=O)Cc1ccc(C)cc1 | 0.5 | i | 0.95 | 100.8 | -9.4 | 99.7 | -1.7
Oc1ccccc1OCCOc1ccccc1OCCOc1ccccc1O | x | i | 0.81 | 98.7 | x | x | x
COc1ccc(/C=C2\N=C(C)N(c3ccc4ccccc4c3)C2=O)cc1OC | -2.0 | i | 0.99 | 97.2 | -35.4 | 49.3 | 0.0
Cc1cc(OCCCCN2C(=O)NC(C)(C)C2=O)ccc1[N+](=O)[O-] | -1.7 | i | 0.97 | 94.7 | x | x | x
OCc1nc2ccccc2n1Cc1c(F)cccc1Cl | x | i | 0.98 | 87.6 | x | x | x
O=C(c1ccccc1F)N1CCN(c2ccc([N+](=O)[O-])c(N3CCOCC3)c2)CC1 | -2.3 | i | 1.09 | 60.6 | x | x | x
CCOC(=O)CC(=O)NC(CC(=O)OC)c1ccc(Br)cc1 (configuration not stated) | -3.5 | i | 1.16 | 101.6 | 45.5 | 84.1 | x
Cc1cc(C)nc(-n2nc(C)cc2NC(=O)CNCc2ccccc2)n1 | 0.7 | i | 0.92 | 100.4 | 14.3 | 115.4 | -2.0
COc1ccc(N(C(=O)Cn2nnc3ccccc32)C(C(=O)NC(C)(C)C)c2ccc(OC)c(O)c2)cc1 (configuration not stated) | 5.7 | i | 0.97 | 106.4 | 7.1 | 106.2 | x
CCN(CC)CCn1c(SCC(=O)NCCC2=CCCCC2)nc2c(sc3ccccc32)c1=O | -1.1 | i | 0.75 | 103.7 | -26.7 | 92.0 | x
CCC1(C)N([O-])C(C)=C(c2ccccc2)[N+]1=O (configuration not stated) | -7.9 | i | 0.89 | 104.6 | 29.0 | 123.2 | 0.3
Cc1cc(C(=O)COC(=O)c2ccncc2)c(C)n1Cc1ccco1 | -3.3 | i | 1.03 | 94.0 | -35.0 | 137.2 | x
CC(=O)/C(=N\Nc1ccc(C)cc1)N1CCOCC1 | -6.7 | i | 1.05 | 96.3 | 55.2 | 53.6 | -1.7
COc1ccc2nc3ccccc3nc2c1NC(=O)c1ccccc1Cl | -6.1 | i | 0.99 | 100.7 | x | x | x
O=C(O)c1ccc(Nc2ncnc3scc(-c4ccccc4)c23)cc1 | 2.6 | i | 1.01 | 91.1 | x | x | x
Cc1ccc(-n2cc(S(=O)(=O)c3ccc(C)cc3)[nH]c2=O)cc1 | 8.1 | i | 0.94 | 93.3 | x | x | x
CCOC(=O)c1ccccc1NC(=O)C=C(C)C | 11.6 | i | 0.94 | 102.4 | 17.6 | 157.3 | -1.5
CC(C)(O)C#Cc1ccc(CN2CCCC(CO)(Cc3cccc(Cl)c3)C2)cc1 (configuration not stated) | -1.9 | i | 1 | 99.4 | x | x | x
CCOC(=O)C(=O)c1csc(NC(=O)COc2ccc(N(C)S(=O)(=O)c3ccc(F)cc3)cc2)n1 | 2.6 | i | 0.85 | 100.6 | -83.3 | 82.5 | -0.3
O=C(CCCn1c(=S)[nH]c2ccccc2c1=O)N1CCOCC1 | -8.4 | i | 0.68 | 103.2 | x | x | -2.2
CCN(CC)C(=O)C1CCCN(C(=O)Nc2ccc3nsnc3c2)C1 (configuration not stated) | -5.1 | i | 0.93 | 106.5 | -7.1 | 104.2 | -2.8
Cc1cc(NC(=O)CSc2ccc(Cl)cc2)no1 | -4.3 | i | 1.07 | 100.3 | 47.4 | 31.2 | 0.5
CCc1cc(C(=O)N/N=C/c2c(C)[nH]c3ccccc23)cs1 | 2.1 | i | 0.93 | 53.5 | x | x | -0.7
CCn1cc(Br)c(C(=O)Nc2nccs2)n1 | 4.3 | i | 0.87 | 107.0 | x | x | x

The list goes on.
SMILES | PKD1 inh | HSV augment | HSV augment primary fold | RGS16-Gao | Insulin prom inh | Insulin prom inh cell count | GALR2 agonist
CCc1nnc(NC(=O)CSc2nnc(Cc3ccccc3)n2-c2ccc(OC)cc2)s1 | -10.1 | i | 1.13 | 105.9 | -94.7 | 83.1 | -0.6
CCOC(=O)c1cc(=O)cc(C(=O)OCC)o1 | -10.0 | i | 1.12 | 99.8 | 59.4 | 114.5 | -0.9
Cc1cccc(NC(=O)c2cnc3sccn3c2=O)c1 | -2.3 | x | x | 109.0 | x | x | x
O=C(Cn1nnc(-c2ccc(Cl)cc2)n1)NCc1ccco1 | -4.5 | i | 0.87 | 91.0 | x | x | x
COc1ccc(NC(=O)CSc2c3c(nc4ccccc24)CCC3)c(OC)c1 | -6.6 | i | 0.75 | 96.9 | 12.5 | 192.1 | -1.7
CC(=O)Oc1cccc(N2C(=O)c3ccc(C(=O)Nc4c[nH]c(=O)[nH]c4=O)cc3C2=O)c1 | -3.8 | i | 0.94 | 95.5 | -214.3 | 163.1 | x
Cc1cc(C)n(/N=C/c2cc(Cl)cc(Cl)c2O)c(=O)c1 | 1.3 | i | 1.16 | 94.5 | -28.6 | 66.0 | x
COc1ccc(N(CC(=O)N2CCN(Cc3ccc4c(c3)OCO4)CC2)S(=O)(=O)c2ccc(F)cc2)cc1 | x | i | 1.12 | 106.2 | x | x | x
CC(C)C(NC(=O)c1ccc(C(C)(C)C)cc1)C(=O)NCC(c1ccccc1)N(C)C (configuration not stated) | x | i | 0.9 | 103.0 | x | x | x
COc1ccc2[nH]c(C(=O)O)c(CCNC(C)=O)c2c1 | 0.7 | x | x | 104.0 | 56.2 | 94.6 | -2.8
CCc1ccccc1-n1c(SCC(=O)N2CCCC2)nnc1-c1ccccn1 | -1.8 | i | 1.05 | 99.3 | -64.3 | 107.5 | -1.4
COc1cc2c3c(c1)C1(C(=O)N3C(C)(C)C=C2C)C(C#N)=C(N)Oc2cc(O)ccc21 (configuration not stated) | -1.1 | i | 0.93 | 92.2 | 25.6 | 85.7 | -3.2
O=C(COc1ccc2c3c(c(=O)oc2c1)CCC3)NC1CCCCC1 | -5.0 | i | 1.04 | 97.9 | x | x | -0.1
Cc1cccc(NC(=S)NCCc2ccc(S(N)(=O)=O)cc2)c1C | 3.3 | i | 0.99 | 94.9 | 21.9 | 101.5 | -1.7
N#C/C(=C\c1cc(Cl)cc(Cl)c1O)C(=O)NC1CCCCC1 | 4.8 | i | 1.1 | 97.9 | -45.8 | 98.2 | -1.8
N#Cc1nc(-c2ccccc2F)oc1N1CCCC1 | -7.3 | i | 0.93 | 100.3 | -144.4 | 121.0 | -0.4

Structural class: those above with an NH in an aromatic ring.
SMILES | PKD1 inh | HSV augment | HSV augment primary fold | RGS16-Gao | Insulin prom inh | Insulin prom inh cell count | GALR2 agonist
CCOc1ccc(S(=O)(=O)n2cc(F)c(=O)[nH]c2=O)cc1 | -6.2 | i | 1.16 | 94.1 | x | x | x
CCN1CCN(Cc2ccc(NC(=O)c3ccc(C)c(NC(=O)c4ccc5n[nH]nc5c4)c3)cc2C(F)(F)F)CC1 | x | i | 0.95 | 101.5 | x | x | x
Cc1n[nH]c(=S)c2nn(-c3ccccc3F)c(C)c12 | -0.9 | x | x | 105.4 | -1.4 | 80.5 | -1.6
CCC(C)(C)C1CCc2[nH]nc(C(=O)NN)c2C1 (configuration not stated) | x | i | 1.17 | 104.9 | x | x | x
Cc1ccc(-n2cc(S(=O)(=O)c3ccc(C)cc3)[nH]c2=O)cc1 | 8.1 | i | 0.94 | 93.3 | x | x | x
O=C(CCCn1c(=S)[nH]c2ccccc2c1=O)N1CCOCC1 | -8.4 | i | 0.68 | 103.2 | x | x | -2.2
CCc1cc(C(=O)N/N=C/c2c(C)[nH]c3ccccc23)cs1 | 2.1 | i | 0.93 | 53.5 | x | x | -0.7
CC(=O)Oc1cccc(N2C(=O)c3ccc(C(=O)Nc4c[nH]c(=O)[nH]c4=O)cc3C2=O)c1 | -3.8 | i | 0.94 | 95.5 | -214.3 | 163.1 | x
COc1ccc2[nH]c(C(=O)O)c(CCNC(C)=O)c2c1 | 0.7 | x | x | 104.0 | 56.2 | 94.6 | -2.8

Not a hit list; 1.3% or so of the library scored in one or more.
